# gsp antag: qHTS for Antagonists of gsp, the Etiologic Mutation Responsible for Fibrous Dysplasia/McCune-Albright Syndrome: qHTS | gsp-mutant cells, cAMP HTRF, 30 min; control for the full effect not named in the record | Potency, µM (doses to about 76.9 µM), for inactives: at the highest dose activity change, negative = inhibition, actives largely listed as inhibitors | 0.4% of 340,000 active | AID 624288, 2012; active = falling curve of any shape with a large fitted effect; inconclusive = falling curve, mostly with a smaller effect; inactive = flat or rising curve; cell line not stated here;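 also: intracellular cAMP measured with PDE inhibitor Ro 20-1724 present during compound exposure; potency is read from the fitted curve at half-maximal effect; % is scaled to controls: 0 for no effect and ±100 for the full control effect; nearly all actives have a fitted effect of over 65% in size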
#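 HTRF cAMP read-out (cAMP-d2 plus anti-cAMP antibody-K in lysis buffer, 30 min RT). Before lysis, cells are exposed to compounds with […] for 30 min at 37C in DPBS containing Ca/Mg, BSA and Tween 20.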
# D2 potentiator: Beta-Arrestin HTS for Positive Allosteric Modulators of the Human D2 Dopamine Receptor: Potentiators. D(2) dopamine receptor (Homo sapiens), P14416. DiscoveRx D2 beta-arrestin cells, luminescence, 90 min; 100% = 57 uM dopamine signal. 0.23% of 360,000 active. potentiation, % (test concentration not listed); active = potentiation of 50% or more; inconclusive = 30% to 50%; inactive = 30% or less;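 also: compound concentration not given in the record; tested on top of an EC20 dose of dopamine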
#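 D2 cells co-treated with compound plus 50 nM dopamine (EC20) for 90 min at 37 deg C to detect potentiation. Beta-arrestin recruitment was read as enzyme-fragment luminescence after 1 h at ambient temperature. Full response was set by 57 uM dopamine.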
# D2 ag: Beta-Arrestin HTS for Positive Allosteric Modulators of the Human D2 Dopamine Receptor: Agonists. DiscoveRx PathHunter D2 beta-arrestin, luminescence, 90 min; 100% = 57 uM dopamine signal. D(2) dopamine receptor (Homo sapiens), P14416. 0.084% of 360,000 active. activation, % (concentration not given with the values); in the data active = activation above about 40%; inconclusive = about 15% to 40%; inactive = below about 15%; also: compound concentration not given in the record; the text of the record calls up to 30% inactive
#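 DiscoveRx PathHunter D2 beta-arrestin cells (2,100/well) attached overnight, then compound-stimulated 90 min at 37 C in HBSS/10 mM HEPES/0.1% Tween-20 buffer; beta-galactosidase complementation read by luminescence after 1 h at ambient temperature. Dopamine 57 uM final (EC100) as control.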
# gsp ag: qHTS for Agonist of gsp, the Etiologic Mutation Responsible for Fibrous Dysplasia/McCune-Albright Syndrome: qHTS. Potency, µM (titrated, usually from 76.9 µM), for the others: top-dose activation (cAMP increase), actives largely listed as activators. 0.13% of 340,000 active. AID 624287, 2012. gsp mutant cells, cAMP HTRF, 30 min; control for the full effect not named in the record; active = well fitted activation curve with a large enough effect; inconclusive = small, poorly fitted or top-dose-only effect, or another doubt; inactive = no such curve, though single readings can be large or run the other way; cell line not stated here;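 also: phosphodiesterase inhibitor Ro 20-1724 added with compounds to block cAMP breakdown; potency is read from the fitted curve at half-maximal effect; nearly all actives have a fitted effect of over 60% in size; about a fifth of the inactives were tested at one dose only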
#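 Cells in DMEM/10% FBS with G418 were pretreated with compounds in DMSO plus […] (300 uM stock) for 30 min at 37C. cAMP was measured by HTRF (cAMP-d2 plus anti-cAMP antibody-K) after 30 min at room temperature.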
# Six1-Eya2 inh: qHTS Assay for Inhibitors of the Six1/Eya2 Interaction; Homeobox protein SIX1 (Homo sapiens) + Protein phosphatase EYA2 (Homo sapiens), …; AlphaScreen GST-Six1/His-Eya2 binding, biochemical; active compounds read low; control for the full effect not named in the record; activity change, % (concentration not given with the values); 0.56% of 360,000 active; AID 651725, 2012; in the data active = activity change below about -65%; inconclusive = about -30% to -65%; inactive = above about -30%; also: % is scaled to controls: 0 for no effect and ±100 for the full control effect
# Target sequence (O00167 whole entry, looked up): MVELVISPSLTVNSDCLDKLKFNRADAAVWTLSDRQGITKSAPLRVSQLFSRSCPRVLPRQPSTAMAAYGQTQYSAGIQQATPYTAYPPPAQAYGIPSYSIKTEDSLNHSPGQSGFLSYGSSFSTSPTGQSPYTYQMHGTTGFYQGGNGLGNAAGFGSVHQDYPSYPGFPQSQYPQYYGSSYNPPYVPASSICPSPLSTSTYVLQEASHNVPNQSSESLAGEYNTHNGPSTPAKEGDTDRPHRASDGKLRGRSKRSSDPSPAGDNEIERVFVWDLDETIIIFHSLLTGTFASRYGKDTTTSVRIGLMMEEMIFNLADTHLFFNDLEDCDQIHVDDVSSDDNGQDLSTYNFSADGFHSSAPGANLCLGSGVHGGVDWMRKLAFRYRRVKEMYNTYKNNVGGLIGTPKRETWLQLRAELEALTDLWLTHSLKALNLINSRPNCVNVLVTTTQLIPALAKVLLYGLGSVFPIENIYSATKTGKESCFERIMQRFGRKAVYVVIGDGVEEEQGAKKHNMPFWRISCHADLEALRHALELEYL
# Target sequence (Q15475 whole entry, looked up): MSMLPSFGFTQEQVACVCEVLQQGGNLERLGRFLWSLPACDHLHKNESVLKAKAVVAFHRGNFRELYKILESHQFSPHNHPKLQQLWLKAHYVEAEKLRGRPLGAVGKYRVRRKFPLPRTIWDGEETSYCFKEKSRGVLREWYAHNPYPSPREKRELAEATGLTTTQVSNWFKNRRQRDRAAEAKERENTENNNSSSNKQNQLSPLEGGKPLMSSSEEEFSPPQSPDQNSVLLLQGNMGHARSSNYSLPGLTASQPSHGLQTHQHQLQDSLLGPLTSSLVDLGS
#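 GST-Six1 + His-Eya2 (5X stock: 250/500 nM); Tris pH 8.0, 300 mM NaCl, 0.05% BSA, 0.02% Tween 20; GSH donor/Ni acceptor beads; 1 h 37 °C dark; AlphaScreen readout.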
# CtBP-E1A inh: qHTS Assay for Inhibitors of the CtBP/E1A Interaction | activity change, % (concentration not given with the values) | 0.49% of 340,000 active | AlphaScreen GST-E1A/His-CtBP binding, 1536-well; active compounds read low; control for the full effect not named in the record; in the data active means activity change below about -65%; inconclusive means about -30% to -65%; inactive means above about -30%; also: % is scaled to controls: 0 for no effect and ±100 for the full control effect
#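 GST-E1A and His-tagged CtBP (125 nM each as 5X stock) were preincubated with pin-transferred compound for 2 h at 37 °C in the dark, then glutathione donor and nickel acceptor beads were added for 1 h before AlphaScreen reading.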
# Active calls of the source: *; u = inconclusive; x = no result given; [ ] = dose if it differs, or a comment.
SMILES,gsp antag,D2 potentiator,D2 ag,gsp ag,Six1-Eya2 inh,CtBP-E1A inh
Cc1ccc(NC(=O)C2(C)CCN2C(C)C)cc1C (configuration not stated),x,-6,-2.5,x,-4,0
Cn1c(Cn2c(=O)sc3ccccc32)nnc1SCC(=O)Nc1ccc(F)cc1,-3%,-4,-3.7,-28%,4,-4
CC[n+]1c(/C=C(\C)SC)sc2ccccc21,-9%,-16,-1.5,-54%[inhibitor],0,1
CN1CCN(C(=O)C2CCN(S(=O)(=O)c3ccc(F)cc3)CC2)CC1,13%,-3,-1.9,-2%,2,5
CCOC(=O)C1(C)CCN1C(=O)c1cc2ccccc2s1 (configuration not stated),x,-10,-7.7,x,-15,-5
Cc1ccc(C(=O)Nc2cccnc2)cc1C,x,-14,-1.1,-12%,4,9
CC(=O)c1ccccc1OCCOc1ncnc2sccc12,7%,-1,0.3,7%[15.4 µM],-21,11
CC(=O)c1sc2nsc(SCCN3CCCCC3)c2c1N,-1%,-14,1.9,9%,8,9
COc1ccc(C(N)=O)cc1N,2%,2,0.8,-40%[inhibitor],3,3
COc1ccccc1CNC(=O)CCCn1nc(C)c2c(C)n(-c3ccc(C)cc3)nc2c1=O,-21%,-13,-3.7,-2%,-2,x
O=C(Nc1ccccc1)c1cccc(NC(=O)c2ccco2)c1,-6%,-8,2.6,30%,-3,-3
COc1ccc(C)cc1NC(=O)C(OC(=O)c1cc(C)oc1C)c1ccccc1 (configuration not stated),-13%,-17,-2.0,-38%[inhibitor],-16,-11
Cc1cc(C)c2nc(SCC#N)cc(C)c2c1,1%,-3,0.7,0%,12,24
CCCCn1c(N)c(N(CC(C)C)C(=O)CSC(C)C(=O)Nc2cc(C)on2)c(=O)[nH]c1=O (configuration not stated),-4%,4,-4.5,6%,-4,-2
CC(=O)c1c(C)[nH]c(C(=O)COc2cc(C)ccc2C(C)C)c1C,11µM*,17,0.5,-32%[inhibitor],-7,0
Cc1c(Cl)cccc1NC(=S)NC(=O)CCN1C(=O)c2ccccc2C1=O,-2%,-10,-2.9,0%,2,-7
CCOC(=O)c1c(NC(=S)Nc2ccccc2)sc2c1CC(C)(C)SC2,u,-22,-1.7,7%[15.4 µM],-13,-5
Cc1ccc(S(=O)(=O)/N=C(\c2ccccc2)N(C)S(=O)(=O)c2ccc(C)cc2)cc1,1%,3,-4.3,-1%,0,10
O=c1c2cnn(-c3ccccc3Cl)c2ncn1Cc1cccnc1,4%,13,-1.0,9%,2,-5
COc1ccccc1NC(=O)Cc1nc(=O)[nH]c(=O)[nH]1,x,0,-1.3,-42%[inhibitor],3,0
O/N=C(\Cc1cscn1)c1ccc(O)cc1O,3%,-16,0.9,-2%,-4,7
COc1ccc(C(=O)OCC(=O)Nc2ccc(F)c(F)c2F)cc1OC,13%,14,-1.2,0%,6,3
Cn1cc(Br)c(-c2cccc(NC(=O)CCC(=O)O)c2)n1,1%,-6,-2.2,-5%[15.4 µM],11,1
O=c1[nH]c(CSc2nnc(-c3ccccc3)n2-c2ccccc2)nc2ccccc12,7%,-5,-1.4,10%,-3,-22
O=C(Nc1ccc(Cl)cc1)OCCN1CCOCC1,5%,-11,-3.1,26%,9,4
# Following part:
SMILES,gsp antag,D2 potentiator,D2 ag,gsp ag,Six1-Eya2 inh,CtBP-E1A inh
COc1ccc(C(C)(NC(C)=O)c2nc(-c3cc(F)cc(F)c3)cs2)cc1 (configuration not stated),x,-1,-5.1,x,-2,0
CN(C)c1nc(N)nc(CSc2nnnn2C)n1,7%,-13,-1.6,28%,14,3
COc1cc(OC)cc(C(=O)NC(C(=O)NCc2ccccn2)C(C)C)c1 (configuration not stated),-9%,-8,-3.3,21%,-1,x
COCCNC(=O)CN(C(=O)Cn1nnc2ccccc21)c1ccc(C)cc1,-1%,0,0.3,16%,2,5
COc1ccc(S(=O)(=O)N2CCC3(CC2)OCCN3S(=O)(=O)c2ccc(OC)cc2)cc1,-2%,22,3.1,-70%[inhibitor],-5,-12
Cc1ccc(OCc2ccc(C#N)cc2)c(C(=O)c2cc(C#N)c(=O)n(C3CC3)c2)c1,-13%,-6,-3.3,1%,10,x
CC1CCN(C(=S)NC(=O)c2cccc([N+](=O)[O-])c2)CC1,9%,-20,-1.6,-18%,-13,-6
Cc1ccc(C)c(N2CCN(C(=O)CCn3c(=S)[nH]c4cc5c(cc4c3=O)OCO5)CC2)c1,7%,3,0.8,u,-3,2
C[C@@H](NC(=O)Cn1cnc2c(OCc3ccccc3)ncnc21)c1cccc2ccccc12,u,-2,-2.3,x,6,0
Cc1ccc2nc(NC(=O)/C=C/c3ccc4c(c3)OCO4)sc2c1,9%,-1,-1.5,-12%[15.4 µM],13,0
CCN(CC)C(=O)C1=C(C)N(CCCN2CCCC2=O)C(=O)C(CC(=O)NC(c2ccccc2)c2ccccc2)C1 (configuration not stated),x,x,1.4,1%,-1,2
Cc1noc(C)c1COC(=O)Cc1ccc(Br)cc1,2%,1,-1.7,17%[15.4 µM],18,0
O=C(NNC(=S)NCc1ccco1)c1ccc(S(=O)(=O)N2CCOCC2)cc1,0%,-3,-3.6,4%[15.4 µM],-1,3
CC(C(=O)Nc1ccc(Cl)cc1)c1ncc(C(F)(F)F)cc1Cl (configuration not stated),18%,-22,1.2,-6%,-3,-5
COCC(=O)N1CCC(Oc2ccc(C(=O)N(C)Cc3nccs3)cc2)CC1,7%,1,-3.7,-17%[15.4 µM],0,10
Cc1cccc(NC(=O)CC2S/C(=N/c3nccs3)N(C)C2=O)c1 (configuration not stated),8%,-31,-0.4,-4%,9,-1
Cc1ccc(C)c(Cn2c(=O)n(CCC(=O)NCc3ccco3)c(=O)c3sccc32)c1,3%,-1,-0.8,18%,-2,9
O=C(C[C@H]1C/C=C\C[C@@H](Cc2ccc(F)cc2)C(=O)O[C@H](c2ccccc2)CNC1=O)N[C@@H](CO)Cc1ccccc1,4%,3,3.8,x,0,0
O=C(c1ccc(Cn2cc(Cl)cn2)o1)N1CCN(Cc2ccc3c(c2)OCO3)CC1,1%,-27,-3.5,19%,0,-6
Cc1c(C(=O)NCc2ccc(F)cc2)sc(=O)n1Cc1ccc(Cl)c(Cl)c1,x,-5,7.2,x,-17,-9
CCCOC(=O)N[C@@H]1C(=O)N2C(C(=O)OCCC)=C(C)CS[C@H]12,5%,-45,1.5,x,-11,-10
CCN(CC)CCCC(C)NC(=O)c1ccc(C(F)(F)F)cc1 (configuration not stated),-4%,3,0.8,14%,7,x
COc1cccc(C(=O)N2CCN(Cc3cc(Br)ccc3OC)CC2)c1,-7%,-40,-3.5,3%,-7,-3
Cc1cccc(Nc2ccc([N+](=O)[O-])cc2C(=O)O)c1,5%,-6,-0.6,-12%,-5,-1
CC(C)c1ccc(NC2CCCN(C(=O)c3cnsn3)C2)cc1 (configuration not stated),7%,-3,1.1,-21%[15.4 µM],-18,1
# Remaining list, next part:
SMILES,gsp antag,D2 potentiator,D2 ag,gsp ag,Six1-Eya2 inh,CtBP-E1A inh
COC(=O)c1ccsc1NC(=O)CN1CCN(Cc2ccc3c(c2)OCO3)CC1,-15%,-22,-3.0,u,0,43
COc1cc2c(O)cc(C(=O)O)c(-c3cc(OC)c(OC)c(OC)c3)c2cc1OC,-4%,2,4.5,2%,-7,3
CCC(CC)C(=O)c1c[nH]c(C(=O)NCc2ccco2)c1,-1%,-6,-0.7,u,-2,-9
O=C(N/N=C/c1cccnc1)c1cccc(NC(=O)c2ccccc2Cl)c1,-12%,-2,-3.8,-1%,-4,-4
Cc1ccc(C)c(NC(=O)CSc2nnc(-c3ccco3)o2)c1,4%,-17,0.1,16%,2,4
CN1CCc2c(sc3c2C(=O)NC(/C=C/c2ccco2)N3)C1 (configuration not stated),-15%,-17,-1.7,-63%[inhibitor],-9,-6
NC1=NC(c2ccc(Cl)cc2)n2c(nc3ccccc32)N1 (configuration not stated),4%,-3,-1.6,-11%,-2,-4
CCn1c(CCc2ccccc2)nnc1SCC(N)=O,10%,0,-5.0,-80%[inhibitor],7,-1
CCOc1ccccc1NS(=O)(=O)c1csc(C(N)=O)c1,15%,-6,-4.7,-6%[15.4 µM],4,7
COc1ccc(C(=O)OCn2nnc3ccccc3c2=O)cc1OC,12%,2,-2.0,0%,9,10
O=C(NCc1ccccc1)c1cncc(Br)c1,12%,-8,-2.2,-9%[15.4 µM],-6,20
Nc1ncnc(Oc2cccc3cccnc23)c1[N+](=O)[O-],x,-37,-3.2,14%[15.4 µM],-67*,-13
Cc1cc(N/N=C/c2ccccc2O)nc(-c2ccccc2O)n1,7%,-19,-2.0,-9%[15.4 µM],-7,14
COc1ccc(/C=C(\C#N)C(=O)c2c(C)[nH]c3ccccc23)cc1OC,u,0,-3.8,u,7,7
O=c1cc(-c2ccccc2)nc(N2CCCCC2)[nH]1,4%,2,1.5,-1%,-3,-2
CCCS(=O)(=O)c1cn2cccc(N)c2c1S(=O)(=O)CCC,-23%,-8,4.2,25%[15.4 µM],-6,3
COc1ccc(/C=C/c2cc(C(F)(F)F)[nH]c(=O)n2)cc1OC,-18%,5,-2.1,-5%,9,3
COc1ccccc1CNC(=O)CCn1c(=O)oc2ccccc21,-1%,-8,-3.8,2%,3,0
Cc1cc(=O)oc(C)c1C(=O)NC1CC(C)(C)NC(C)(C)C1,0%,1,-0.3,-5%,5,-2
Cc1ccc(C)c(-n2c(C)cc(/C=N/NC(=O)c3c(C)nc4cc(C)ccn34)c2C)c1,16%,7,-4.1,-3%,-21,-1
COc1ccc(/C=N/n2c(COc3ccccc3)n[nH]c2=S)cc1OC,-10%,-11,-2.4,-7%[15.4 µM],-3,3
CCc1ccc2oc(C(=O)NC3CCS(=O)(=O)C3)cc(=O)c2c1 (configuration not stated),-2%,-1,-3.3,-23%,0,3
COc1c2c(cc3oc(=O)ccc13)OC(C)(C)C=C2,2%,-2,3.9,-14%,2,2
O=C(c1ccccc1F)N1CCCc2ccccc21,0%,0,-1.2,-12%,-3,x
CC(C)c1cc(C(C)C)n2nc(N)nc2n1,10%,-24,-6.6,17%,1,x
COCCNC(=O)CN(c1cc(C(F)(F)F)ccc1Cl)S(C)(=O)=O,2%,-11,-0.9,-19%,4,21

# Quoted at random: 2 records from the list
SMILES,gsp antag,D2 potentiator,D2 ag,gsp ag,Six1-Eya2 inh,CtBP-E1A inh
COc1cc2c(O)cc(C(=O)O)c(-c3cc(OC)c(OC)c(OC)c3)c2cc1OC,-4%,2,4.5,2%,-7,3
O=C(N/N=C/c1cccnc1)c1cccc(NC(=O)c2ccccc2Cl)c1,-12%,-2,-3.8,-1%,-4,-4

# An unsorted share of the library; 1.4% or so of the library scored in one or more.
